# Screening data deposited in PubChem by National Center for Advancing Translational Sciences (NCATS).
# Lassa entry inh = inhibitors of Lassa virus binding or cell entry; Potency, µM (titrated, usually from 37.9 µM), inactives show at the highest dose activity change, negative = inhibition, most hits filed as inhibitors; hit rate 1.2% among 300,000; Lassa virus pseudotype entry inhibition, cell reporter; control for the full effect not named in the record; active means well fitted inhibition curve with a large enough effect; inconclusive means small, poorly fitted or top-dose-only effect, or effect the other way; inactive means flat fitted curve, though single readings scatter; tested in HEK293 cells; further: on the % scale 0 is the no-effect control and ±100 the full control effect; nearly all actives have a fitted effect of over 50% in size; luciferase read-out
# Cruzain inh Det = blocks cruzain activity in presence of Triton detergent. AID 1478. P25779. hit rate 0.43% among 200,000. Potency, µM, for the others: max response, negative = inhibition, actives largely listed as inhibitors. purified cruzain, Z-FR-AMC fluorescence, 0.01% Triton; active means well fitted curve in the direction sought with a large enough effect; inconclusive means small, poorly fitted or top-dose-only effect, or another doubt; inactive means no such curve, though single readings can be large; an effect the other way counts as inactive or inconclusive;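 further: plate controls were neutral wells for no effect and buffer without enzyme for full effect; nearly all actives have a fitted effect of over 40% in size; top concentration of the series not given in the record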
# Target sequence (P25779 123-467 limits assumed): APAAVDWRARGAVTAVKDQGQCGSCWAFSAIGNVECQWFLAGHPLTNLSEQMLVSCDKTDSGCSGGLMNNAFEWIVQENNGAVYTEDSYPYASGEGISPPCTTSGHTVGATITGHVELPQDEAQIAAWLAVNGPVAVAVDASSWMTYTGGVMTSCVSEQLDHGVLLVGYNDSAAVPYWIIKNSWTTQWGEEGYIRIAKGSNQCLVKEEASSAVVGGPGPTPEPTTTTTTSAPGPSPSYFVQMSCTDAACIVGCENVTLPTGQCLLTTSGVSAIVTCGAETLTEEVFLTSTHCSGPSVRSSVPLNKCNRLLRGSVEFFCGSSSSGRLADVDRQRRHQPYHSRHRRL
#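 In this qHTS format, compounds are incubated with 1.5 nM cruzain for 15 min at room temperature before 2 uM Z-FR-AMC is added. Release of AMC is followed at 360/450 nm, and progress is taken as the 60 s fluorescence difference.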
# RE007 growth inh = less growth of the S. pombe RE007 Vpr strain | S. pombe RE007 Vpr strain, BacTiter-Glo ATP luminescence, 24 h; control for the full effect not named in the record | Potency, µM (series often up to 92.2 µM), without a hit: at the highest dose activity change, negative = less growth | hit rate 0.21% among 360,000; active = well fitted falling curve with a large enough effect; inconclusive = small, poorly fitted or top-dose-only effect; inactive = no such curve, though single readings can be large or run the other way;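 further: on the % scale 0 is the no-effect control and ±100 the full control effect; nearly all actives have a fitted effect of over 50% in size; the assay follows cell death caused by Vpr and the record does not say whether a fall means rescue or toxicity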
#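 Fission yeast strain RE007, carrying one chromosomally integrated HIV-1 vpr copy, was seeded at OD 0.01 in PMG+AL medium with 23 nL pinned compound. After 24 h at 30 °C and 99% humidity, viability was read by BacTiter-Glo luminescence.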
# StopGo reporter = lowers the luciferase signal of an FMDV 2A StopGo reporter | human cells with a luciferase reporter of 2A StopGo recoding; control for the full effect not named in the record | Potency, µM (series often up to 57.9 µM), without a hit: top-dose signal change, negative = less light | hit rate 1.2% among 410,000; active = well fitted falling curve with a large enough effect; inconclusive = small, poorly fitted or top-dose-only effect; inactive = no such curve, though single readings can be large or run the other way; tested in HEK293T cells; further: on the % scale 0 is the no-effect control and ±100 the full control effect; nearly all actives have a fitted effect of over 45% in size; luciferase light after 4 h
# Marburg entry inh = Marburg virus entry inhibition; hit rate 1.8% among 300,000; Potency, µM (doses to about 37.8 µM), inactives show at the top dose activity change, negative = inhibition, usual class: inhibitors; Marburg virus pseudotyped entry inhibition, cell reporter; control for the full effect not named in the record; about a third of the inactives were read at about 46 µM; AID 540276; active = well fitted inhibition curve with a large enough effect; inconclusive = small, poorly fitted or top-dose-only effect, or effect the other way; inactive = flat fitted curve, though single readings scatter; tested in HEK293 cells; about a fifth of its hits are not listed in these tables; further: on the % scale 0 is the no-effect control and ±100 the full control effect; luciferase read-out
# NS1 inh = inhibitors of influenza NS1 protein function; S. cerevisiae slowed by influenza A NS1, growth recovery by OD600; Potency, µM (doses to about 46.1 µM), without a hit: at the highest dose activity, positive = more growth; hit rate 0.4% among 270,000; AID 2326; further: actives are rising curves; nearly all actives have a fitted effect of over 50% in size
#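 Growth recovery, yeast-based: influenza A NS1 expressed in S. cerevisiae causes slow growth, and suppressors are detected by OD600. The parent strain without NS1 is used as positive control.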
# Cruzain inh noDet = cruzain (T. cruzi) inhibition without detergent | purified cruzain, Z-FR-AMC fluorescence, no detergent | Potency, µM, for inactives: max response, negative = inhibition, most hits filed as inhibitors | hit rate 2.3% among 200,000; active means well fitted curve in the direction sought with a large enough effect; inconclusive means small, poorly fitted or top-dose-only effect, or another doubt; inactive means no such curve, though single readings can be large; an effect the other way counts as inactive or inconclusive;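 further: plate controls were enzyme without inhibitor for no effect and buffer without enzyme for full effect; nearly all actives have a fitted effect of over 40% in size; top concentration of the series not given in the record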
#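 Purified cruzain at 1.5 nM, pre-incubated 15 min with compound at room temperature in 100 mM sodium acetate pH 5.5, 5 mM DTT, 0.00005% Triton X-100. Reaction started with 2 uM Z-FR-AMC; AMC fluorescence increase over 60 s gives rate.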
# SARS PLP yeast = blocks SARS-CoV papain-like protease in a yeast assay. S. cerevisiae expressing SARS-CoV PLpro, growth rescue; control for the full effect not named in the record. Potency, µM (titrated, usually from 32.9 µM), for inactives: top-dose activity, positive = growth rescue. hit rate 0.19% among 330,000; further: 0% is about no effect; nearly all actives have a fitted effect of over 55% in size; growth read by luminescence after 48 h
# * = called active by the depositor; u = inconclusive; x = no result given; & = joins results of further samples; [ ] = another dose, or the depositor's remark. Unless noted, the call rests on the fitted dose curve; in most records, active means well fitted rising curve with a large enough effect; inconclusive means small, poorly fitted or top-dose-only effect; inactive means no such curve, though single readings can be large or run the other way. Potency means the concentration at half of the fitted maximal effect.
# Start of the listing, in advance:
SMILES,Lassa entry inh,Cruzain inh Det,RE007 growth inh,StopGo reporter,Marburg entry inh,NS1 inh,Cruzain inh noDet,SARS PLP yeast
CC(=O)NC(CC(=O)Nc1ccc(S(=O)(=O)N2CCOCC2)cc1)c1ccccc1 (stereo not drawn),13%,x,-2%,11%,-6%,x,x,1%
O=C(Nc1nnc(-c2ccc(F)cc2)o1)C1CCCN1S(=O)(=O)c1cccs1 (stereo not drawn),-7%,x,-6%,-12%,-22%[46.1 µM],x,x,-1%
CCc1ccc(NC(=O)CSc2nc3c(sc4ccccc43)c(=O)n2CCCOC)cc1,1%[46.1 µM],0.1%,x,-4%,x,x,-1%,x
CCCN(CC(=O)Nc1ccccc1OC)C(=O)CCCN1C(=O)c2ccccc2C1=O,-2%[46.1 µM],x,-3%,-21%,-11%,x,x,-6%

# The listing, previewed entries included:
SMILES,Lassa entry inh,Cruzain inh Det,RE007 growth inh,StopGo reporter,Marburg entry inh,NS1 inh,Cruzain inh noDet,SARS PLP yeast
CC(=O)NC(CC(=O)Nc1ccc(S(=O)(=O)N2CCOCC2)cc1)c1ccccc1 (stereo not drawn),13%,x,-2%,11%,-6%,x,x,1%
O=C(Nc1nnc(-c2ccc(F)cc2)o1)C1CCCN1S(=O)(=O)c1cccs1 (stereo not drawn),-7%,x,-6%,-12%,-22%[46.1 µM],x,x,-1%
CCc1ccc(NC(=O)CSc2nc3c(sc4ccccc43)c(=O)n2CCCOC)cc1,1%[46.1 µM],0.1%,x,-4%,x,x,-1%,x
CCCN(CC(=O)Nc1ccccc1OC)C(=O)CCCN1C(=O)c2ccccc2C1=O,-2%[46.1 µM],x,-3%,-21%,-11%,x,x,-6%
CCOC(=O)C1=C(C)Nc2[nH]c(=O)[nH]c(=O)c2C1c1cccs1 (stereo not drawn),-3%,-0.5%,0%,-24%,26%,-1%,8%,-2%
CCN(CC)C(=O)CSc1nc2cc3c(cc2c(=O)n1CCCCCC(=O)NCc1ccc(OC)cc1)OCO3,u,1.7%,-5%,-4%&-21%,u,x,8%,-2%
O=C(O)c1csc(Br)c1Br,2%,1.3%,12%,-4%,1%,-59%,-10%,-6%
COc1ccccc1NC(=O)c1cc(C)oc1C,-1%[46.1 µM],x,4%,6%,6%[46.1 µM],-4%,x,-2%
COc1ccc(CNC(=O)c2cc(C3CC3)nc3c2c(C)nn3-c2cccc(Cl)c2C)cc1,-2%[46.1 µM],-1.3%,x,-22%,x,x,-15%,x
C/C(=N\NS(=O)(=O)c1ccc(Br)cc1)c1cccs1,-2%,-7.9%,0%,94%[activator],-22%,-6%,-14%,0%
O=C(Nc1cc(C(F)(F)F)ccc1Cl)C(Sc1cccc[n+]1[O-])c1ccccc1 (stereo not drawn),2%,-13%,u,-12%,u,-9%,15%,u
CCOc1ccccc1C=C1SC(=S)NC1=O,16%[46.1 µM],x,6%,19%,u,x,x,x
CN(C)S(=O)(=O)c1ccc(N2CCCC2)c(C(=O)NNC(=O)COc2ccc(Cl)cc2)c1,4%,x,10%,-6%,17%,3%,x,-1%
Cc1ccc(NC(=O)COC(=O)Cn2c(C)csc2=O)cc1C,6%,1.6%,10%,13%,3%,-10%,-2%,-9%
S=C(NCc1ccco1)N1CCOCC1,3%,x,6%,-1%,8%&8%[14.2 µM],0%,x,0%
Cc1cc(-n2c(C)nc3ccccc3c2=O)ccc1NC(=O)c1ccc([N+](=O)[O-])cc1,3%[46.1 µM],1.3%,x,u,x,x,14%,x
O=C1NC(=O)N(c2ccc3c(c2)OCO3)C(=O)/C1=C\c1ccsc1,x,x,-16%,-29%,x,2%,x,-4%
Cc1cccc(-c2ncc(CN3CCN(CC(C)C)C(CCO)C3)cn2)c1 (stereo not drawn),15%,x,-9%,-10%,4%[46.1 µM],-2%,x,0%
CC(Oc1ccccc1)C(=O)Nc1ccc(S(=O)(=O)NCC2CCCO2)cc1 (stereo not drawn),-18%,0.4%,1%,x,-1%,-11%,-12%,2%
COc1ccccc1N1C(=O)C(Cl)=C(Nc2ccccc2O)C1=O,-7%,x,-14%,42%[activator],-12%[46.1 µM],x,x,-8%
O=C(NCCC1=CCCCC1)C1CCN(S(=O)(=O)c2cccc3cccnc23)CC1,x,0.6%,-9%,-8%,x,-13%,3%,1%
Cc1ccc(Cl)cc1N1CCN(CCCNc2ncnc3onc(-c4ccc(Cl)cc4)c23)CC1,-1%[46.1 µM],0.2%,x,-22%,u,x,7%,x
COc1cc(S(=O)(=O)N2CCN(C)CC2)ccc1Cl,1%,0.2%,-3%,x,-7%,-1%,-7%,6%
O=C(NCc1ccccc1)c1cccc(S(=O)(=O)NCc2ccccc2)c1,u,-4.3%,1%,35%[activator],5%,-2%,-7%,9%
CCn1c(=O)n(CC)c2cc(N3CCCCC3)c(NC(=O)Nc3ccccc3C(F)(F)F)cc21,u,-9.7%,x,-12%,x,x,u,x
CC(CCc1ccccc1)NC(=O)c1ccccc1F (stereo not drawn),x,x,4%,10%,x,-14%,x,3%
CC(C)(C)c1ccc(C(=O)Nc2ccc(-c3nc4cc(Cl)ccc4o3)cc2)cc1,0%[46.1 µM],-0.2%,x,-7%,x,x,-2%,x
Cc1ccc(S(=O)(=O)N2CCOCC2)cc1C(=O)NC1CCCC(C)C1C (stereo not drawn),-5%,x,-24%,-26%,u,x,x,-2%
CCCOc1ccc(Oc2cc(C)nc(SC)n2)nn1,0%,3.5%,44%,6%,3%,-5%,-3%,-7%
CCSc1nnc(NC(=O)c2ccc3c(c2)OCO3)s1,u,-0.6%,1%,68%[activator],-26%,-1%,25µM*,-3%
O=C(CCN1C(=O)/C(=C/c2ccccc2)SC1=S)NNC(=O)c1cccnc1,u,-2.2%,4%,-23%,u,9%,7%,8%
CCOc1ccc(CC(=O)NCCc2sc3nc(-c4ccc(F)cc4)nn3c2C)cc1,-13%[46.1 µM],-2.2%,x,-22%,x,x,u,x
COc1ccc(/C=C/C(=O)N2CCN(C)CC2)cc1S(=O)(=O)N1CCCCC1,x,x,0%,27%,x,6%,x,2%
COc1ccc([C@@H]2[C@@H]3C(=O)N(C(C)(C)C)C(=O)[C@@H]3[C@]3(CC(C)C)C(=O)N(c4cccc(Br)c4)C(=O)N23)cc1,x,x,-6%,-13%,x,13%,x,0%
COc1cccc(CNC(=O)Cn2c(=O)c3cccn3c3ccc(F)cc32)c1OC,-1%[46.1 µM],4.0%,x,-21%,x,x,6%,x
CC(=O)N[C@@H](Cc1c[nH]c2ccccc12)C(=O)OCC(=O)NCc1ccc2c(c1)OCO2,10%[46.1 µM],x,-14%,-2%,0%[46.1 µM],x,x,1%
COc1ccc(/C=N/NC(=O)c2cc(C34CC5CC(CC(C5)C3)C4)[nH]n2)cc1O,-2%,-12%,20%,0%,u,18%,6%,-7%
CCN(CC)C(=O)c1cn(-c2ccccc2)nc1-c1ccc2c(c1)OCCO2,-3%,x,-20%,33%[activator],-16%[46.1 µM],-6%,x,-3%
CCOc1ccccc1-n1c(SCC(=O)N2CCCC2)nnc1-c1ccoc1C,-28%,2.8%,-9%,-8%,u,-11%,3%,-4%
COC(=O)c1[nH]c2ccc(C)cc2c1NC(=O)NC1CCCCC1,12%,0.8%,11%,0%,-26%[46.1 µM],7%,15%,-1%
C=CC(=O)NN(C)c1ncc(C(F)(F)F)cc1Cl,x,x,20%,-13%,x,4%,x,-1%
C=CCn1c(O)c(/C=N/NC(=O)CCCC)c(=O)[nH]c1=S,-2%,x,4%,-12%,21%[46.1 µM],x,x,2%
Cc1cccc(NC(=O)CSc2nc(N)c(NC(=O)c3cccs3)c(=O)[nH]2)c1C,-15%,-0.2%,-10%,7%,u,8%,u,-21%
CCn1ncc(CN2CCCC(CNC(=O)c3ccc(F)cc3)C2)c1C (stereo not drawn),3%[46.1 µM],x,-19%,-10%,u,-3%,x,-3%
CCC1(c2ccc(F)cc2)NC(=O)N(CC(=O)N2CCN(C(=O)c3cccs3)CC2)C1=O (stereo not drawn),u,x,-9%,-27%,4%,x,x,-2%
CCOC(=O)c1c(C)[nH]c(C(=O)Cn2nnc(-c3ccccc3Cl)n2)c1C,-19%,3.4%,2%,21%,-16%,-7%,20%,9%
O=C(CSc1nncs1)NCCCc1ccccc1,24%[46.1 µM],x,1%,-1%,2%[46.1 µM],x,x,2%
CCOc1ccc(CNC(=O)CCCn2c(=O)c3cccn3c3ccc(F)cc32)cc1,-5%[46.1 µM],-4.0%,x,1%,x,x,8%,x
CCCCCCCc1c(O)nc(SCCN2CCOCC2)[nH]c1=O,x,x,-2%,-13%,x,1%,x,1%
CCc1ccc(NC(=O)Cn2c(SC)nc3ccccc32)cc1,-1%,-4.6%,18%,-20%,-27%,-56%,-6%,0%
O=C(CSc1nc2c([nH]c3ccccc32)c(=O)n1-c1ccccc1F)NCC1CCCO1 (stereo not drawn),u,x,12%,-15%,4%[46.1 µM],3%,x,3%
CCCCNC(=O)CCc1c(C)nc2cc(-c3ccccc3)nn2c1C,28%[46.1 µM],-0.2%,x,34%[activator],2%[46.1 µM],x,4%,x
COc1ccc(-c2nc3ccccc3o2)cc1NC(=O)COc1ccc(C(C)(C)C)cc1,14%[46.1 µM],-0.5%,x,4%,x,x,u,x
C#CCNC(=O)C1=C[C@@H](C)C[C@@H](OCc2ccc(CO)cc2)O1,x,x,7%,13%,x,2%,x,-1%
Cc1ccccc1Nc1nc(-c2cccnc2)cs1,x,x,-14%,25%,x,-63%,x,-11%
C#CCn1cccc(C(=O)Nc2ccc(OC)cc2)c1=O,x,x,-13%,28%,x,2%,x,-2%
COc1ccc(N2CC(C(=O)NCc3n[nH]c(=O)c4ccccc34)CC2=O)cc1 (stereo not drawn),14%,x,-5%,-5%,11%,x,x,3%
